NS1 function inh: qHTS Assay for Inhibitors of Influenza NS1 Protein Function | Potency, µM (titrated, usually from 46.1 µM), inactives show top-dose activity, positive = more growth | 270,000 compounds, 0.4% hits | S. cerevisiae slowed by influenza A NS1, growth recovery by OD600; active means well fitted rising curve with a large enough effect; inconclusive means small, poorly fitted or top-dose-only effect; inactive means no such curve, though single readings can be large or run the other way; note: nearly all actives have a fitted effect of over 50% in size
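A cell-based growth assay was used: compounds that relieve NS1-induced slow growth of budding yeast raise OD600. Assay medium was yeast nitrogen base with ammonium sulphate and -URA supplement, pH 6.0, with 2% galactose.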
RE007 growth inh: qHTS Assay for Inhibitors of the HIV-1 protein Vpr | S. pombe RE007 Vpr strain, BacTiter-Glo ATP luminescence, 24 h; control for the full effect not named in the record | 360,000 compounds, 0.21% hits | Potency, µM (titrated, usually from 92.2 µM), without a hit: at the highest dose activity change, negative = less growth | AID 651644, 2012; active = well fitted falling curve with a large enough effect; inconclusive = small, poorly fitted or top-dose-only effect; inactive = no such curve, though single readings can be large or run the other way;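 note: % is set by controls: 0 for no effect and ±100 for the full control effect; nearly all actives have a fitted effect of over 50% in size; the assay follows cell death caused by Vpr and the record does not say whether a fall means rescue or toxicity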
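Fission yeast RE007 carrying one integrated HIV-1 vpr copy, seeded at OD 0.01 in PMG+AL medium with 23 nL pinned compound. Grown 24 h at 30 degrees; viability read by BacTiter-Glo luminescence after 5 min.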
Cruzain inh noDet: qHTS Assay for Promiscuous and Specific Inhibitors of Cruzain (without detergent); purified cruzain, Z-FR-AMC fluorescence, no detergent; Potency, µM, for inactives: max response, negative = inhibition, usual class: inhibitors; 200,000 compounds, 2.3% hits;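 note: plate controls were enzyme without inhibitor for no effect and buffer without enzyme for full effect; nearly all actives have a fitted effect of over 40% in size; top concentration of the series not given in the record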
Target sequence (P25779 123-467 limits assumed): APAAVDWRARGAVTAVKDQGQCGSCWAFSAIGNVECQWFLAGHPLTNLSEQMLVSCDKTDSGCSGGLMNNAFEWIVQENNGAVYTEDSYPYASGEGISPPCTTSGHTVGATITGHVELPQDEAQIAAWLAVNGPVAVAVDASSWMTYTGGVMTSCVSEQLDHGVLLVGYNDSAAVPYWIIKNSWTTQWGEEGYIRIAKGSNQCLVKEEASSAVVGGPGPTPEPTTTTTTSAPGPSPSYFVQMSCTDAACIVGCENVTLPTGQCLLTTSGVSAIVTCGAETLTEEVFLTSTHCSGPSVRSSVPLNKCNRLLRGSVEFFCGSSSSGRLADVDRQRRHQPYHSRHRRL
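Purified cruzain at 1.5 nM, pre-incubated 15 min with compound at room temperature in 100 mM sodium acetate pH 5.5, 5 mM DTT, 0.00005% Triton X-100. Reaction started with 2 uM Z-FR-AMC; AMC fluorescence increase over 60 s gives rate.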
SARS PLP yeast: qHTS of Yeast-based Assay for SARS-CoV PLP | S. cerevisiae expressing SARS-CoV PLpro, growth rescue; control for the full effect not named in the record | Potency, µM (titrated, usually from 32.9 µM), without a hit: at the top dose activity, positive = growth rescue | 330,000 compounds, 0.19% hits; active means well fitted rising curve with a large enough effect; inconclusive means small, poorly fitted or top-dose-only effect; inactive means no such curve, though single readings can be large or run the other way; note: 0% is about no effect; nearly all actives have a fitted effect of over 55% in size; growth read by luminescence after 48 h
StopGo reporter: High Throughput Screening for Foot and Mouth Disease Virus Antivirals | AID 1159524, 2015 | Potency, µM (doses to about 57.9 µM), inactives show at the top dose signal change, negative = less light | human cells with a luciferase reporter of 2A StopGo recoding; control for the full effect not named in the record | 410,000 compounds, 1.2% hits; active = well fitted falling curve with a large enough effect; inconclusive = small, poorly fitted or top-dose-only effect; inactive = no such curve, though single readings can be large or run the other way; tested in HEK293T cells; note: % is set by controls: 0 for no effect and ±100 for the full control effect; nearly all actives have a fitted effect of over 45% in size; luciferase light after 4 h
LASV entry inh: qHTS for Inhibitors of binding or entry into cells for Lassa Virus; Potency, µM (titrated, usually from 37.9 µM), inactives show at the highest dose activity change, negative = inhibition, actives largely listed as inhibitors; Lassa virus pseudotype entry inhibition, cell reporter; control for the full effect not named in the record; AID 540256, 2011; 300,000 compounds, 1.2% hits; active means well fitted inhibition curve with a large enough effect; inconclusive means small, poorly fitted or top-dose-only effect, or effect the other way; inactive means flat fitted curve, though single readings scatter; tested in HEK293 cells; note: % is set by controls: 0 for no effect and ±100 for the full control effect; nearly all actives have a fitted effect of over 50% in size; luciferase read-out
Marburg entry inh: qHTS for inhibitors of binding or entry into cells for Marburg Virus; Marburg virus pseudotyped entry inhibition, cell reporter; control for the full effect not named in the record; about a third of the inactives were read at about 46 µM; Potency, µM (titrated, usually from 37.8 µM), without a hit: top-dose activity change, negative = inhibition, actives largely listed as inhibitors; 300,000 compounds, 1.8% hits; AID 540276, 2011; active = well fitted inhibition curve with a large enough effect; inconclusive = small, poorly fitted or top-dose-only effect, or effect the other way; inactive = flat fitted curve, though single readings scatter; tested in HEK293 cells; about a fifth of its hits are not listed in these tables; note: % is set by controls: 0 for no effect and ±100 for the full control effect; luciferase read-out
Cruzain inh Det: qHTS Assay for Promiscuous and Specific Inhibitors of Cruzain (with detergent) | AID 1478, 2009 | Cruzipain (Trypanosoma cruzi), P25779 | purified cruzain, Z-FR-AMC fluorescence, 0.01% Triton | Potency, µM, for inactives: max response, negative = inhibition, usual class: inhibitors | 200,000 compounds, 0.43% hits;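 note: plate controls were neutral wells for no effect and buffer without enzyme for full effect; nearly all actives have a fitted effect of over 40% in size; top concentration of the series not given in the record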
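Steps: dispense cruzain (1.5 nM final) in acetate buffer pH 5.5 with DTT and 0.01% Triton X-100; pin-transfer compounds; incubate 15 min RT; add Z-FR-AMC (2 uM final); read fluorescence every 30 s, using the 60 s intensity change.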
Starred values were filed as active, the others as inactive; ? = inconclusive; . = no result given; & = joins results of further samples; [ ] = dose if it differs, or a comment. Unless noted, calls come from the whole dose curve; as a rule, active = well fitted curve in the direction sought with a large enough effect; inconclusive = small, poorly fitted or top-dose-only effect, or another doubt; inactive = no such curve, though single readings can be large; an effect the other way counts as inactive or inconclusive. Potency is the fitted concentration of half-maximal effect. This is a random part of the collection, and some 4.7% of all compounds hit somewhere here.

SMILES	NS1 function inh	RE007 growth inh	Cruzain inh noDet	SARS PLP yeast	StopGo reporter	LASV entry inh	Marburg entry inh	Cruzain inh Det
COc1cc(NC(=O)CSc2nc3nc(C)c(Cc4ccccc4)c(C)n3n2)cc(OC)c1OC	.	.	?	.	?	1%[46.1 µM]	.	0.3%
CCC1NC(=S)NC(C)=C1C(=O)c1ccccc1 (stereo unspecified)	.	-5%	.	5%	-10%	-13%[46.1 µM]	-10%[46.1 µM]	.
CC1CCc2nc(NC(=O)Cc3ccc(Cl)cc3)sc2C1 (stereo unspecified)	.	.	5%	.	18%	7%[46.1 µM]	3%[46.1 µM]	-13%
COc1cc(C2c3cc4c(cc3OC(N3CCCCC3)C2C)OCO4)cc(OC)c1O (stereo unspecified)	.	2%	.	.	-19%	?	-25%	.
CC1CCCN(C(=O)CCS(=O)(=O)Cc2ccccc2)C1 (stereo unspecified)	4%	7%	5%	-5%	0%	0%	3%	6.2%
COc1ccc(S(=O)(=O)N2CCC(C(=O)NCCC(=O)NCc3ccncc3)CC2)cc1	-2%	-1%	.	-4%	-3%	1%[46.1 µM]	10%[46.1 µM]	.
COc1ccc(-c2cc(=O)[nH]c(=S)[nH]2)cc1	6%	7%	.	-2%	13%	1%[46.1 µM]	4%[46.1 µM]	.
COC(=O)c1ccc2c(c1)N(CC(=O)Nc1cccc(Cl)c1C)C(=O)c1ccccc1S2	.	.	10%	.	-3%	19%[46.1 µM]	.	-2.0%
COc1ccc(Nc2nc(C(=O)N3CCc4ccccc4C3)cs2)cc1	9%	-15%	.	0%	-3%	-8%[46.1 µM]	?	.
CN(Cc1ccccc1)C(=O)COC(=O)c1ccc(Cl)cc1N	.	-2%	.	-6%	-3%	1%	?	.
CCCCC(=O)Nc1ccc(Cl)cn1	-11%	-1%	-13%	2%	.	13%	6%	3.3%
Cc1nnc(NC(=O)CSc2nnc(Cc3cccn3C)n2-c2cccc(C)c2C)s1	-49%	.	18%	4%	.	.	.	-5.0%
Cc1nc(SCCO)c2oc3ccccc3c2n1	-7%	-5%	-6%	3%	.	-1%	13%	-2.8%
Cc1ccc(-n2nc(N)c3c(=O)oc(N(C)C)nc32)cc1	-7%	14%	4%	-3%	-15%	-4%	19%	3.2%
COc1ccc(N(CC(=O)Nc2ccccc2C(=O)N2CCCC2)S(C)(=O)=O)cc1	8%	9%	.	0%	3%	-1%[46.1 µM]	-23%[46.1 µM]	.
CCCn1c(=O)c(C(=O)c2ccccc2)nc2ccccc21	-2%	6%	4%	-1%	2%	2%	0%	-4.7%
COc1ccc(C(CC(=O)O)n2cnnn2)cc1 (stereo unspecified)	.	-15%	.	4%	-3%	3%[46.1 µM]	2%[46.1 µM]	.
C/C=C(\C)C(=O)OC1c2c(ccc3ccc(=O)oc23)OC(C)(C)C1OC(C)=O (stereo unspecified)	-3%	30%	1%&3%	-4%	-12%&-11%	-3%	-22%	-1.6%&-9.8%
O=C(Nc1ccc(Br)cc1)c1cccc(NC(=O)C2C3CC4OC(=O)C2C4C3)c1 (stereo unspecified)	0%	0%	3%	-7%	19%	15%	?	-5.1%
Cc1ccc(SCCc2cc[n+](CC(=O)c3ccccc3)cc2)cc1	6%	10%	.	5%	-27%	8%	11%[46.1 µM]	.
COC(=O)c1ccc(NC(=O)CN(C2CCCCC2)S(C)(=O)=O)cc1	-27%	0%	0%	0%	-4%	-21%	-18%	1.2%
Cc1nnc(SCC(=O)N2c3ccccc3CC2C)[nH]c1=O (stereo unspecified)	4%	-15%	5%	11%	-12%	8%	1%	0.3%
O=C(c1cc2nc(-c3ccccc3)cc(C(F)(F)F)n2n1)N1CCOCC1	0%	0%	-1%	-6%	8%	?	0%	1.7%
c1ccc(Cn2nnc3c(NCC4CCCO4)nc(C4CC4)nc32)cc1 (stereo unspecified)	6%	0%	.	3%	-22%	.	.	.
Cc1nc(-c2ccccc2)sc1-c1nc(-c2cccs2)ncc1S(=O)(=O)c1ccccc1	0%	.	?	-17%	.	.	1%	-2.6%
(listing goes on)
SMILES	NS1 function inh	RE007 growth inh	Cruzain inh noDet	SARS PLP yeast	StopGo reporter	LASV entry inh	Marburg entry inh	Cruzain inh Det
O=C(CCN1C(=O)c2ccccc2S1(=O)=O)NCc1ccc(F)cc1	.	-7%	.	4%	-1%	1%	4%	.
Cc1sc2nc(-c3ccco3)oc(=O)c2c1C	-2%	-18%	-18%	-3%	-8%	0%	-7%	-2.0%
COc1ccccc1CC(=O)Nc1ccc(-c2nnc(-c3ccco3)o2)cc1	-29%	35%	7%	3%	-20%	-21%	-25%	8.9%
CCc1ccc(N(C(=O)c2csnn2)C(C(=O)NC2CCCCC2)c2cccnc2)cc1 (stereo unspecified)	-5%	2%	.	1%	10%	.	-15%[46.1 µM]	.
Cc1cc(O)c(-c2cc(C(=O)Nc3ccc(S(=O)(=O)N4CCOCC4)cc3)[nH]n2)cc1C	-36%	11%	16%	-2%	?	?	?	-9.8%
Cc1ccc(F)cc1NC(=O)CSc1nnc(CNC(=O)c2ccco2)n1C	.	-18%	.	-3%	-20%	1%	15%	.
Cc1cc(C)cc(N(CC(=O)NCc2ccco2)C(=O)CCC(=O)Nc2ccccn2)c1	-17%	-19%	7%	1%	-22%	-3%	?	-0.6%
Cc1cccc(N2C(=O)C(CC(=O)Nc3ccccc3)N(C3CCCCC3)C2=O)c1 (stereo unspecified)	.	.	-7%	.	-23%	-22%[46.1 µM]	10%[46.1 µM]	-3.5%
CC1(C)Oc2ccc(C(=O)NC3CCCC3)cc2N(CC(=O)NC2CCCCC2)C1=O	4%	-2%	16%	3%	22%	-8%	-8%	1.4%
O=C(/C=C/Nc1ccc(F)cc1)c1ccco1	-6%	?	-14%	-8%	-55%	?	?	0.7%
COc1ccc(/C=N/NC(=O)c2cccnc2)c(C(=O)O)c1OC	1%	2%	.	-1%	-7%	.	.	.
CCOC(=O)c1cc(C#N)c(SC)nc1C	3%	-8%	.	-1%	4%	23%	0%	.
C=CCN(C(=O)Cn1nc(C)n2c(cc3cc(C)ccc32)c1=O)c1ccccc1	-8%	3%	.	-5%	-6%	.	.	.
CCOc1c(Cl)cc(CNCC(C)C)cc1OC	-11%	3%	0%	3%	-15%	3%	2%	7.9%
CCN(CC(=O)Nc1cc(Cl)ccc1C)C(=O)c1cc([N+](=O)[O-])ccc1N1CCOCC1	.	-17%	.	3%	-9%	6%	?	.
N#C/C(=C/C=C/c1ccccc1)C(=O)Nc1ccccc1	18%	-10%	-18%	9%	30%[activator]	?	2.9µM*	-8.4%
O=C1CCCc2nc(N3CCCCC3)sc21	-6%	-3%	-5%	-3%	42%[activator]	22%	?	-6.5%
Cc1ccc(CSc2ccc(C(=O)N3CCOCC3)cc2[N+](=O)[O-])cc1	.	-16%	.	0%	8%	5%	2%[46.1 µM]	.
Cc1ccc(NC(=O)CCCN2C(=O)COc3ccc(C)cc32)c(Cl)c1	.	.	-17%	.	-21%	-3%[46.1 µM]	6%[46.1 µM]	-6.1%
N/C(=N\OC(=O)c1cc(-c2ccccc2)nc2ccccc12)c1ccncc1	-14%	6%	?	0%	.	?	?	-7.2%
Cn1c(C(=O)N2COCC2(C)C)cc2c(=O)n3ccccc3nc21	-19%	-1%	-5%	4%	30%[activator]	13%	10%	-26%
COCCn1c(=O)[nH]c2cc(C(=O)OC)ccc2c1=O	2%	11%	-5%	3%	-1%	14%	4%	3.7%
Cc1cccc2sc(NC(=O)C3=NN(c4ccccc4)C(=O)CC3)nc12	20%	3%	2%	1%	-1%	.	.	-8.4%
COc1ccccc1CN1CC(C(=O)NCCCc2ccc(F)cc2)CCC1=O (stereo unspecified)	-1%	46%	.	4%	0%	.	.	.
Cc1nc(/C(=N/O)C(N)=O)cs1	2%	15%	.	0%	-11%	.	.	.
Next part.
SMILES	NS1 function inh	RE007 growth inh	Cruzain inh noDet	SARS PLP yeast	StopGo reporter	LASV entry inh	Marburg entry inh	Cruzain inh Det
Cc1ccc(C)c(C(=O)COc2ccc(C)nc2[N+](=O)[O-])c1	2%	-1%	-8%	-5%	0%	8%	?	-2.6%
CCCCn1c(N)c(N(CCOC)C(=O)COc2c(C)cccc2C)c(=O)[nH]c1=O	.	5%	.	0%	2%	7%	6%[46.1 µM]	.
CCn1c(CC(=O)Nc2ccc(Cl)cc2)nnc1SCC(=O)N1CCOCC1	-6%	-1%	.	3%	-9%	?	?	.
CCSc1nnc(NC(=O)Cc2ccc(OC)c(S(=O)(=O)N3CCOCC3)c2)s1	16%	2%	-2%	5%	-3%	-9%	0%&0%	2.7%
Cc1cccc(N2CCN(c3c4c(nc5nncn35)CCC4)CC2)c1C	.	.	-7%	.	-13%	17%[46.1 µM]	-6%[46.1 µM]	1.2%
CCOc1ccc(NC(=O)CN(C)C(=O)c2cccc(S(=O)(=O)N3CCCC3)c2)cc1OCC	.	18%	.	2%	-22%	-11%	-2%[46.1 µM]	.
COC(=O)c1ccc2nc(Nc3nc4c(F)cc(F)cc4s3)sc2c1	14%	.	8%	-1%	0.25µM*	3.2µM*	7.3µM*	-9.2%
CCOC(=O)c1ccc(NC(=O)CSc2ccc(-c3ccccn3)nn2)cc1	-25%	7%	10%	0%	?	?	-9%&-9%	-4.4%
O=C(CNC(=S)N(Cc1ccccc1F)C1CCCCC1)NC1CC1	?	-11%	-2%	0%	9%	3%	-2%	-0.1%
CCCCSc1cc(=O)[nH]c(N)n1	0%	-5%	.	1%	-6%	0%	-4%[46.1 µM]	.
CCc1nccn1S(=O)(=O)c1ccc(OC)c(C)c1C	4%	4%	-5%	3%	2%	0%	6%	3.8%
COC(=O)c1nn(-c2ccccc2)c(Cl)c1/C=N/O	-3%	1%	.	11%	-2%	3%[46.1 µM]	-4%[46.1 µM]	.
COC(=O)c1ccc(S(=O)(=O)N(C2CCCCC2)C2CCCCC2)n1C	1%	16%	.	-1%	33%[activator]	.	.	.
COc1ccc(C)cc1S(=O)(=O)N(CC(=O)O)c1ccc(F)cc1	-1%	-7%	-5%	.	-2%	2%	?	-3.1%
O=C(NCC(=O)N1CCN(c2ccccc2)CC1)c1ccc(Cl)cc1	1%	-6%	.	1%	-5%	.	.	.

Source: PubChem BioAssay
